# From PubChem BioAssay
# PINK1 modulator – PINK1 expression modulation; Potency, µM (doses to about 76.6 µM), for inactives: at the top dose activation (PINK1 increase), actives largely listed as activators; 0.2% of 410,000 active; PINK1 immunofluorescence, high-content cytometry, 24 h; active = well fitted activation curve with a large enough effect; inconclusive = small, poorly fitted or top-dose-only effect; inactive = flat fitted curve, though single readings scatter; cell line not stated here;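 also: potency is read from the fitted curve at half-maximal effect; % of control where 0% means no effect; nearly all actives have a fitted effect of over 65% in size; a mitochondrial uncoupler was the plate control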
#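 Stable cell line treated 24 h with compounds at 5 concentrations (CCCP controls), then fixed and immunostained for PINK1 plus nuclear and cell stains; PINK1 immunofluorescence quantified by laser-scanning microplate cytometry.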
# Six1-Eya2 blk – Six1/Eya2 interaction inhibition; AlphaScreen GST-Six1/His-Eya2 binding, biochemical; active compounds read low; control for the full effect not named in the record; activity change, % (no concentration beside the values); 0.56% of 360,000 active; in the data active = activity change below about -65%; inconclusive = about -30% to -65%; inactive = above about -30%; also: % is scaled to controls: 0 for no effect and ±100 for the full control effect
#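 GST-Six1 + His-Eya2 (5X stock: 250/500 nM); Tris pH 8.0, 300 mM NaCl, 0.05% BSA, 0.02% Tween 20; GSH donor/Ni acceptor beads; 1 h 37 °C dark; AlphaScreen readout.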
# TRPML1 inh – human mucolipin-1 channel inhibition; AID 624415; TRPML1-inducible cells, Ca2+ dye fluorescence, FDSS; active compounds read low; inhibition of EC80 agonist-evoked calcium signal; activity change, negative = inhibition, % (test concentration not listed); 0.02% of 390,000 active; in the data active means activity change below about -50%; inconclusive means about -30% to -50%; inactive means above about -30%;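 also: stimulus is agonist 54-4 at its EC80 concentration; % is scaled to controls: 0 for no effect and ±100 for the full control effect; compound concentration not given in the record; the text of the record puts the active cut at -80%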
# Target sequence (Q9GZU1 whole entry, looked up): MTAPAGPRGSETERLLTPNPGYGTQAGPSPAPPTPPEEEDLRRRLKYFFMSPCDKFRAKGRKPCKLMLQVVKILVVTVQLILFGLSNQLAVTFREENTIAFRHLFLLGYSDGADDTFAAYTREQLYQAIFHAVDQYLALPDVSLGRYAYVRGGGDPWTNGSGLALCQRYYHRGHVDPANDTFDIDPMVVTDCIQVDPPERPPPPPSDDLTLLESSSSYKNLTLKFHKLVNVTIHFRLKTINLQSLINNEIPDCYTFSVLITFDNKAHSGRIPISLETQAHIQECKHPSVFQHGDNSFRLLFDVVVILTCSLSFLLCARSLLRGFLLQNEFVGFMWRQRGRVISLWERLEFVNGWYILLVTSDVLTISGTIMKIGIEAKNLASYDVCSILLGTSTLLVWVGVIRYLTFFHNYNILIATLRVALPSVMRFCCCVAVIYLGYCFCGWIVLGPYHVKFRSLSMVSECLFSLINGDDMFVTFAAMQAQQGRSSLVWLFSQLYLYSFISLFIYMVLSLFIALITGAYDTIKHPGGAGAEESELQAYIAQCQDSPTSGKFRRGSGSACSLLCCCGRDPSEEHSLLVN
#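 Tet-induced TRPML1-DL cells loaded with Ca8 no-wash calcium dye were read kinetically on FDSS. Compound addition was followed by EC80 agonist 54-4 (4 uM final); inhibition was read over 110 s.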
# D2 agonist – agonists of human D2 dopamine receptor (beta-arrestin) | DiscoveRx PathHunter D2 beta-arrestin, luminescence, 90 min; 100% = 57 uM dopamine signal | activation, % (concentration not given with the values) | 0.084% of 360,000 active; in the data active = activation above about 40%; inconclusive = about 15% to 40%; inactive = below about 15%; also: compound concentration not given in the record; the text of the record calls up to 30% inactive
# Target sequence (P14416 whole entry, looked up): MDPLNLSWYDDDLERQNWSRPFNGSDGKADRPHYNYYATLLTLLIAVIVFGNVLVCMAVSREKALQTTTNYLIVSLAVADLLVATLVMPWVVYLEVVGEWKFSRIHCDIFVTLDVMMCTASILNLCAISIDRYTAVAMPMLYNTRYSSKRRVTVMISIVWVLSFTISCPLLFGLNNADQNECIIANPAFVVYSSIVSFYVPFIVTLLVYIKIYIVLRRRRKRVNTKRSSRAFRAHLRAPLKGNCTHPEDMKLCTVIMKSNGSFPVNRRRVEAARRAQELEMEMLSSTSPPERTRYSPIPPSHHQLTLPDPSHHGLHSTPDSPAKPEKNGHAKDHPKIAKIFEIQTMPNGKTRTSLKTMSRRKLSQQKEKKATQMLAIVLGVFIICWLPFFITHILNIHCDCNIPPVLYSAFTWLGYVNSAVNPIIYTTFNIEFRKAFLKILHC
#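 Agonist mode: compounds alone added to overnight-plated D2 PathHunter cells for 90 min at 37 C, with 57 uM final dopamine (EC100) defining full response. Beta-arrestin recruitment detected by chemiluminescent reagent, read after 1 h at ambient temperature.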
# CtBP-E1A inh – CtBP/E1A binding inhibition; AlphaScreen GST-E1A/His-CtBP binding, 1536-well; active compounds read low; control for the full effect not named in the record; activity change, % (concentration not given with the values); 0.49% of 340,000 active; AID 651724; in the data active means activity change below about -65%; inconclusive means about -30% to -65%; inactive means above about -30%; also: % is scaled to controls: 0 for no effect and ±100 for the full control effect
#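 AlphaScreen with 125 nM GST-E1A and 125 nM His-CtBP (5X stocks) in Tris pH 8.0, 300 mM NaCl, BSA, Tween 20, TCEP. Compounds preincubated 2 h at 37 deg C, then glutathione donor/nickel acceptor beads added for 1 h at 37 deg C in dark.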
# TRPML1 agonist – activates the human TRPML1 channel; Q9GZU1; TRPML1-expressing cells, Ca2+ dye fluorescence, FDSS; host cell line not named in the record; reference of the full effect not given here; activation, % (no concentration beside the values); 0.12% of 410,000 active; AID 624414; in the data active = activation above about 50%; inconclusive = about 30% to 50%; inactive = below about 30%; also: 0% is about no effect; the text of the record puts the active cut at 80%
#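 Calcium fluorescence on an FDSS kinetic reader gave the read-out. Tet-induced TRPML1-DL cells were plated overnight, dye-loaded (Ca8 with quencher, 45-90 min, room temperature, dark), then read 110 s after compound addition, and again 110 s after 4uM final 54-4 (EC80).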
# * marks the source's active call; other numbers are inactive results; ? = inconclusive; / = not tested or not shown; & = joins results of further samples; [ ] = dose if it differs, or a comment. This is a random part of the collection; any-hit rate near 1%.
# The line under a structure holds: PINK1 modulator, Six1-Eya2 blk, TRPML1 inh, D2 agonist, CtBP-E1A inh, TRPML1 agonist
Cc1[nH]c2ccccc2c1N=Nc1ccc(F)cc1
→ -1.3%, -12, 4, -3.1, -15, 0.5
CC(CCc1ccccc1)NC(=O)/C=C/c1ccccc1 (configuration not stated)
→ -2.0%, 19, 22, -1.6, 2, 2.5
Cc1ccc(NC(=O)N2CCN(c3ncccc3C(F)(F)F)CC2)cc1
→ 1.1%, -18, -12, -2.4, /, 0.3
COC(=O)Cc1c(O)ccn(Cc2ccc(OC)c(OC)c2)c1=O
→ -0.9%, -14, 12, -3.1, -14, -0.4
C=CCn1c(-c2cccc(OC)c2)n[nH]c1=S
→ -0.7%, 4, -1, -0.2, 10, 1.1
COCC(C)n1c(C)cc(C(=O)CSc2nnnn2-c2ccc(O)cc2)c1C (configuration not stated)
→ -0.9%, 2, -8, 0.9, -6, 0.8
CC(=O)Nc1ccc(NC(=O)CCc2c(C)noc2C)cc1
→ -3.0%, 1, 32, 0.4, 5, 1.3
COc1ccc(OC)c(-n2cnc3cc(C(=O)NCCc4ccccc4)ccc32)c1
→ -0.2%, /, -17, /, /, -0.5
O=C(O)COCC(=O)NC1CCN(Cc2ccccc2)CC1
→ -0.8%, 11, -2, 4.1, 1, 1.0
O=C(Nc1nccs1)c1ccc(Cl)c(S(=O)(=O)N2CCCCC2)c1
→ 2.1%, -2, 41, 1.9, ?, -0.8
Cc1cc([N+](=O)[O-])cc(/C=N/n2c(C)nc3ccccc3c2=O)c1O
→ 4.6%, ?, 3, -3.9, -86*, -1.0
CCCCNC(=O)c1nn(-c2ccc(C)cc2)c(=O)n(C)c1=O
→ -0.9%, /, 35, /, /, -1.1
Cn1cccc1C(=O)C(=O)Nc1cccc(Cl)c1Cl
→ 15%, 3, -2, -2.5, 8, -1.2
Cc1ccc(C)c(NC(=O)COC(=O)CC2c3ccccc3CCN2S(=O)(=O)c2ccc(F)cc2)c1 (configuration not stated)
→ -1.0%, 8, -20, -4.9, 6, 4.1
Nc1ncc(CN2CCCC(C(=O)Nc3ccc(-c4ccco4)cc3)C2)cn1 (configuration not stated)
→ -0.8%, -10, 9, -2.4, 0, -0.4
COc1ccc(-c2nnc(SCC(=O)Nc3ccc(Cl)cc3)s2)cc1
→ 1.6%, /, -8, /, /, 1.4
CCN1CCN(c2csc3ccc(Cl)cc3c2=O)CC1
→ -0.4%, /, 6, /, /, -0.3
Cc1ccc[n+](CC(=O)Nc2ccc(Cl)c([N+](=O)[O-])c2)c1
→ -0.9%, 1, -8, -1.2, -2, -0.6
CCOC(=O)Cc1csc2nc3sc(C)c(C)c3c(=O)n12
→ -0.2%, 8, 12, -0.7, -2, 1.5
Cc1c(Cc2ccccc2)sc(NC(=O)/C=C/c2cccc3ccccc23)c1C(N)=O
→ 22%, 0, -9, -3.3, 5, -0.8
COCCCNC(=O)Cn1cnc(C(=O)Nc2ccc(C)c(C)c2)n1
→ 1.8%, 5, -7, -0.2, 4, -0.9
Cc1noc(C)c1S(=O)(=O)Nc1ccc(C(C)C)cc1
→ 5.0%, -2, 20, 3.4, /, 2.0
CCOc1ccc(/C=C/C(=O)Oc2ccccc2)cc1
→ 1.3%, 1, 8, 4.5, -22, 0.2
COc1ccc(CNC(=O)C2CCCN2C)cc1OC (configuration not stated)
→ 0.4%, 5, -3, -1.1, 5, 0.1
Cc1c(NC(=O)c2cc(-n3cnnc3)ccc2Cl)cccc1-c1nc2ccccc2s1
→ 7.4%[38.3 µM], -1, -2, 0.1, -2, -0.2
C=CCNC(=O)C(=O)NCC1CCCN1S(=O)(=O)c1cccs1 (configuration not stated)
→ -1.2%, 8, -21, -6.3, 4, 0.7
Cc1cc(C)c(NC(=O)CN(C)CC(=O)Nc2cccc(S(=O)(=O)N(C)c3ccccc3)c2)c(C)c1
→ 1.3%, 2, -9, -1.3, -5, 1.8
CC(C)NC(=O)N(C)C[C@H]1Oc2c(NC(=O)C3CC3)cccc2C(=O)N([C@H](C)CO)C[C@@H]1C
→ 1.2%, 26, -23, -2.1, 35, -0.6
C=CCNC(=O)CC(=O)N/N=C/c1cccc(C)c1
→ -0.6%, 5, -7, -4.9, -5, -0.5
CCc1ccc(/C=C/C(=O)c2ccc(S(=O)(=O)N(C)C)cc2)cc1
→ 9.3%, 7, -11, -11, -1, ?

# Three entries from above, ordered by the number in Six1-Eya2 blk, falling:
smiles	PINK1 modulator	Six1-Eya2 blk	TRPML1 inh	D2 agonist	CtBP-E1A inh
CCOC(=O)Cc1csc2nc3sc(C)c(C)c3c(=O)n12	-0.2%	8	12	-0.7	-2
Cc1noc(C)c1S(=O)(=O)Nc1ccc(C(C)C)cc1	5.0%	-2	20	3.4	/
COC(=O)Cc1c(O)ccn(Cc2ccc(OC)c(OC)c2)c1=O	-0.9%	-14	12	-3.1	-14

# Individual results from the list.
# Entry for `Cc1cc(C)c(NC(=O)CN(C)CC(=O)Nc2cccc(S(=O)(=O)N(C)c3ccccc3)c2)c(C)c1` under D2 agonist: -1.3
# Entry for `CC(C)NC(=O)N(C)C[C@H]1Oc2c(NC(=O)C3CC3)cccc2C(=O)N([C@H](C)CO)C[C@@H]1C` under PINK1 modulator: 1.2%
# Entry for `Cn1cccc1C(=O)C(=O)Nc1cccc(Cl)c1Cl` under CtBP-E1A inh: 8
# Entry for `C=CCn1c(-c2cccc(OC)c2)n[nH]c1=S` under Six1-Eya2 blk: 4
# Entry for `Cc1ccc(NC(=O)N2CCN(c3ncccc3C(F)(F)F)CC2)cc1` under PINK1 modulator: 1.1%
# Entry for `COc1ccc(CNC(=O)C2CCCN2C)cc1OC` (configuration not stated) under CtBP-E1A inh: 5

# Next section.
# The line under a structure holds: PINK1 modulator, Six1-Eya2 blk, TRPML1 inh, D2 agonist, CtBP-E1A inh, TRPML1 agonist
O=C(CSc1ncc(-c2ccccc2)[nH]1)Nc1ccccc1
→ 2.8%, -15, -13&-8, -1.7, 8, 1.4&1.9
COCCCNC(=O)C1CC(=O)N(C2CCCC2)C1 (configuration not stated)
→ /, 0, -10, -2.1, 7, 0.0
Cc1ccc(C(O)(c2ccccc2)c2ccccc2C(C)N(C)C)c(C)c1 (configuration not stated)
→ 1.9%[38.3 µM], -6, -3, -4.5, -4, 0.1
Cc1[nH][nH]c(=O)c1C=NCc1cccc(C(F)(F)F)c1
→ 0.4%, 10, 3, -0.7, /, -1.2
CC(=O)Nc1ccc(S(=O)(=O)NC(C(=O)O)C2=CCC=CC2)cc1 (configuration not stated)
→ /, -8, -3, 0.5, -11, -0.4
CNc1nc(NC)nc(NNC(=O)c2ccccc2)n1
→ -4.1%, 2, 0, -0.4, 1, -0.4
CC(C)CC(NC(N)=O)C(=O)OCC(=O)Nc1ccc(OC(F)F)cc1 (configuration not stated)
→ 8.0%, 1, -10, -2.4, 1, -0.5
CCc1nnc(NC(=O)C2=CCN(S(=O)(=O)c3ccc(F)cc3)CC2)s1
→ 1.0%, 3, -12, -2.4, -2, -0.2
COC(=O)c1c(NC(=O)COC(=O)CC(NC(C)=O)c2ccccc2)sc(C)c1C (configuration not stated)
→ 7.8%, -3, 15, -3.7, -22, -0.4
CCn1ncc(N2CCOCC2)c(Cl)c1=O
→ -0.5%, -4, 1, -4.8, /, 0.0
COc1ccc(/C=N/NC(=O)CC(=O)NCc2cccnc2)cc1[N+](=O)[O-]
→ -0.4%, -3, -3, -4.8, -2, -0.2
CNC(=O)NC(=O)C(C)OC(=O)CCCc1nc2ccccc2s1 (configuration not stated)
→ -0.6%, 8, 6, -0.2, 11, 2.1
COc1ccc(Nc2ccc(N3C(=O)CCCC3=O)cc2[N+](=O)[O-])cc1OC
→ 1.7%, -7, 14, -0.3, -15, -0.6
Cc1ccccc1NC(=O)CSC1=C(C#N)C(c2ccsc2)CC(=O)N1 (configuration not stated)
→ 6.0%, 9, -17, -2.1, 4, 1.6
CCn1c(SCC(=O)Nc2sccc2C(N)=O)nnc1C1CC1
→ 0.3%, -2, 1, -0.4, -27, 3.2
O=C(Nc1ccc(Oc2ccccc2)cc1)c1ccc(F)c(S(=O)(=O)N2CCN(c3ccccc3F)CC2)c1
→ -1.5%, /, -27, /, /, 0.7
COc1cccc(-c2cc(C(=O)Nc3cccnc3)c3ccccc3n2)c1
→ 2.3%, -1, -9, 2.8, -5, 0.1
CC(c1ccc(F)cc1)n1c(-c2cccs2)n[nH]c1=S (configuration not stated)
→ 2.7%, 2, -11, 0.7, 0, -0.6
O/N=C/c1ccc2cccc(O)c2n1
→ 1.5%, -5, -8, 5.6, /, 0.9
CC(C)CCNC(=O)C1CCC(CNS(=O)(=O)c2cccc3nsnc23)CC1 (configuration not stated)
→ 0.0%&0.8%, -1, 12&4, -2.9, /, -0.7&-0.6
COC(=O)CN(c1cc([N+](=O)[O-])ccc1OC)S(C)(=O)=O
→ 0.8%, -7, -15, -6.6, 2, -0.5
CN(Cc1ccccc1F)C(=O)c1ccc(NC(=O)CC2SC(N3CCCCC3)=NC2=O)cc1 (configuration not stated)
→ 1.0%, 18, -22, 0.6, 4, 1.6
O=C1NC(=S)S/C1=C\c1cccc([N+](=O)[O-])c1
→ ?, -14, 0, -1.1, -13, -0.6
CCOCCCNC(=O)C(c1ccc(Cl)cc1)N(Cc1cccs1)C(=O)CNC(C)=O (configuration not stated)
→ 1.7%, 4, 5, 0.6, 13, 1.1
CC(C)C(c1nnnn1CCc1ccccc1)N1CCSCC1 (configuration not stated)
→ -1.1%, 3, -12, 2.7, -3, 1.9
C=CCNC(=O)c1ccc(N(Cc2ccccc2)S(C)(=O)=O)cc1
→ -0.3%, 12, /, 2.4, /, /
O=C(Nc1nnc(SCCC2OCCO2)s1)C1CC(=O)N(c2ccccc2)C1 (configuration not stated)
→ 1.5%, 24, 5, 3.2, 2, -0.3
COc1cccc(C2C(C(=O)Nc3ccc(C)cc3C)=C(C)Nc3ncnn32)c1OC (configuration not stated)
→ 1.5%, 1, 1, -3.1, -1, 0.4
O=C(CNC(=S)N(Cc1ccccc1)Cc1ccccc1F)NCCc1ccccc1
→ 25%, -1, 4, -4.9, -1, -0.6
CCOc1ccc(Cn2nnc(-c3ccc(S(C)(=O)=O)cc3)n2)cc1OCC
→ 4.4%, 4, 1, -2.2, /, -0.1
O=C(O)CSc1nnc2n(-c3ccccc3)c(=O)c3ccccc3n12
→ -0.7%, -5, 1, 2.8, -2, 0.0
COCCNC(=O)Cn1nc(Cc2ccncc2)c2ccccc2c1=O
→ 7.7%, 20, 17, -1.2, -10, 0.2
O=C(COC(=O)/C=C/c1ccco1)Nc1ncc(Cl)cc1Cl
→ 1.7%, -7, 33, -0.4, /, 0.4
CCOc1ccc(Cl)cc1CNCCCSc1ncccn1
→ 3.5%, 3, -15, -3.0, 3, 1.5
CCN1C(=O)C(=O)N(CC(=O)N(C)CC(=O)Nc2ccccc2C(F)(F)F)C1=O
→ 0.7%, 3, 10, 2.6, 1, 2.1
O=C(NCc1ccncc1)c1nnc(Cc2c(F)cccc2Cl)o1
→ -2.5%, 0, -1, -1.1, 1, -0.1
COc1ccc(CCNC(=O)CN(c2ccccc2OC)S(C)(=O)=O)cc1
→ 6.5%[38.3 µM], 5, -13, -3.0, 1, -0.1
